Compound activity deposited in PubChem by several laboratories.
AF4-AF9 inh: blocks AF4 peptide binding to human AF9 | AlphaScreen, biotin-AF4 peptide binding to FLAG-AF9 | inhibition, % at 10 µM | 350,000 tested, 0.47% active | AID 651704;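 active = every replicate reaching a set inhibition limit, whatever the replicate mean, cut at about 25% in these data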;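 also: 0% = plate neutral control median and 100% = total signal loss; the record names both 10 and 1 µM as test concentration; the first replicate is given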
Target sequence (P42568 whole entry, looked up): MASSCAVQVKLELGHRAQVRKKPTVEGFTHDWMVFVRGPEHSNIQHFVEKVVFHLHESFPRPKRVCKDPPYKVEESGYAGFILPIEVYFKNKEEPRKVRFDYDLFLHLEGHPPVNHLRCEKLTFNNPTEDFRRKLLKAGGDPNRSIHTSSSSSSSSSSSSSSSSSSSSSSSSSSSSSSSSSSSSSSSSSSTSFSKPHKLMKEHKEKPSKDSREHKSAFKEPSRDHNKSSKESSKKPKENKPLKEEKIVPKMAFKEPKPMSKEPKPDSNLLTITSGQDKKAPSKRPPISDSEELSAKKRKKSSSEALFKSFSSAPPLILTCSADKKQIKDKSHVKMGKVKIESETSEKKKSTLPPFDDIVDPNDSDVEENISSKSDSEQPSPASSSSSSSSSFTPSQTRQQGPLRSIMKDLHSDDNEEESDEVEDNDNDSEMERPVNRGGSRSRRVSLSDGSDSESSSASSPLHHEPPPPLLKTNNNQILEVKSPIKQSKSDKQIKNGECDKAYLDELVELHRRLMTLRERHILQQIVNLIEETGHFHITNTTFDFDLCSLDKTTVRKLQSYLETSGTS
rRNA inh HTS: inhibits bacterial ribosomal RNA function over humanized ribosomes | E. coli WT GFP vs humanized-ribosome RFP mutants, fluorescence, 24 h; stronger effect = lower value; DMSO median 0, no signal -100 | GFP signal change (wild-type ribosome), % (test concentration not listed) | 350,000 tested, 1.6% active | AID 720706;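 active = significant combined selectivity score with lowered wild-type GFP, culture density cut under 30%, mutant RFP and density less affected; inactive = any of these conditions unmet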; also: one replicate is shown; some compounds called inactive have numbers as strong as hits
Vif TR-FRET: HIV-1 Vif–A3G interaction blockers – biochemical, TR-FRET, GST-Vif 1-94, biotin-A3G peptide, dose response retest, primary screen (AID 1117319) | 260,000 tested, 0.57% active | one-dose inhibition, %; IC50 in µM for titrated hits | TR-FRET GST-Vif / biotin-A3G peptide binding; higher % means a stronger effect; test concentration not given here; strong numbers were not always called active;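 active = above the screen mean plus three standard deviations and confirmed in dose response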;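 also: Vif residues 1-94 fused to GST binding biotinylated APOBEC3G peptide 110-148; 0% = full assay without inhibitor and 100% = GST in place of GST-Vif; retest series ran down from 100 µM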
FGF22 binding: binders of recombinant human FGF22 by thermal shift. Q9HCT0. AID 651658. SYPRO orange fluorescence; percent of sucrose octasulfate shift, DMSO zero. calls only at 9.99 µM. 340,000 tested, 1.5% active;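 active = melting point raised past a set limit in the mean and every replicate; three in four hits are not shown here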
Target sequence (Q9HCT0 whole entry, looked up): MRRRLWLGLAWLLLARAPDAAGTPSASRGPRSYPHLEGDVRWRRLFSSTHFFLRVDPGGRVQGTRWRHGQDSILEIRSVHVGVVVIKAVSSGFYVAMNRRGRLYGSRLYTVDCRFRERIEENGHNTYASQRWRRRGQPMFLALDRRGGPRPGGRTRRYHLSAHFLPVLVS
ALR H2O2 inh: inhibitors of human sulfhydryl oxidase ALR; 290,000 tested, 3.8% active; inhibition, % (test concentration not listed); AID 485317; P55789; purified ALR, DTT oxidation, H2O2 HRP-luminol luminescence;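 active = mean and each replicate at 75% or more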;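 also: stock transfer was 7.5 nL into about 7.5 µL; 0% = neutral wells and 100% = wells with inactivated enzyme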
Target sequence (P55789 whole entry, looked up): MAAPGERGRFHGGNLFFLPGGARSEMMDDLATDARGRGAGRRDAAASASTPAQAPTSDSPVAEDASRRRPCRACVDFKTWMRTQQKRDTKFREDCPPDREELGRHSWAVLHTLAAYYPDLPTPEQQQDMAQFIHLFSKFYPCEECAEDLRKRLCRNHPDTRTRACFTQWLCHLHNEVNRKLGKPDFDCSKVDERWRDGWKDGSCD
HNF4A DNA FP: change in binding of human HNF4 alpha to DNA; 360,000 tested, 0.3% active; activity change, % at 10 µM; P41235; HNF4a-FITC DNA binding, fluorescence polarization, 1 h; in the data active = activity change above about 30%, passing the limit was not always enough;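 also: controls were the assay level and a saturating level of protein; the project sought stronger binding though the title names inhibitors; some compounds called inactive have numbers as strong as hits; positive values seem to mean higher polarization but the record does not say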
E coli growth: inhibitors of Escherichia coli growth; OD600, 23 h; stronger effect = lower value; OD600 absorbance (test concentration not listed); 330,000 tested, 0.21% active; AID 1053175;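 active = OD600 absorbance below the run mean of sample wells minus 3.6 SD, in any replicate, cut at about 0.56 in these data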;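 also: stock transfer was 300 nL into about 60 µL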
rRNA inh HTS OD600: recorded beside rRNA inh HTS, whose call it bears; OD600 change, %; measured here: OD600 growth;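 optical density of the mix in the first replicate; 0 = DMSO median and -100 = no signal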
rRNA inh HTS RFP: second read-out of rRNA inh HTS, no call of its own (marks repeat the call); RFP signal change, %; measured here: RFP humanized mutant strains;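 first replicate; 0 = DMSO median and -100 = no signal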
An asterisk follows results filed as active; i = inactive; . = not tested or not shown. Only part of the results is shown; count on the stated rates, not on these rows.

SMILES	AF4-AF9 inh	rRNA inh HTS	rRNA inh HTS OD600	rRNA inh HTS RFP	Vif TR-FRET	FGF22 binding	ALR H2O2 inh	HNF4A DNA FP	E coli growth
COc1ccc(CN2C[C@H]3CON(C)[C@H]3C[C@H]2c2ccc(-c3ccccc3)cc2)cc1	2.3	7	-5	2.0	.	i	.	-0.3	.
Cc1ccc(CN2CCN(Cc3ccc4ncccc4c3)CC2CCO)cc1 (centres undefined)	0.0	-1	4	1.7	-7%	.	15	1.9	0.74
COc1cc2c(cc1OC)-c1cc3ccc(OC)c(OC)c3c[n+]1CC2	3.7	.	.	.	.	i	-19	-1.3	0.71
O=C(Oc1ccc(-c2nnco2)cc1)c1cc(S(=O)(=O)N2CCOCC2)ccc1F	-1.6	4	9	-5.1	3%	i	.	-3.1	.
C[C@@H]1CN([C@H](C)CO)S(=O)(=O)c2ccc(C#Cc3ccccc3F)cc2O[C@@H]1CN(C)C(=O)Cc1ccncc1	2.3	1	-9	14	.	i	.	.	.
CCC(CC)NC(=O)c1oc2ccccc2c1COc1ccccc1	.	.	.	.	.	.	3	-1.1	0.71
O=C(O)C(CO)N=Cc1c(O)c2ccccc2oc1=O (centres undefined)	-14	-9	-20	-3.3	2%	i	-3	-0.1	0.66
Cc1ccc(NS(=O)(=O)c2c(C(=O)N3CCOCC3)c(C)n(C)c2C)cc1	0.0	6	1	-1.8	11%	i	-15	-0.9	0.69
C[C@@H]1CN([C@@H](C)CO)C(=O)c2cccc(NC(=O)C3CC3)c2O[C@H]1CN(C)Cc1ccc(C(F)(F)F)cc1	0.6	-8	-13	1.3	.	i	.	.	.
COCC(=O)Nc1ccc2c(c1)[C@@H]1C[C@H](CC(=O)N[C@H](C)c3ccccc3)O[C@H](CO)[C@@H]1O2	2.1	0	-1	-1.2	.	i	.	.	.
COC(=O)c1ccc(C(=O)OCc2nc3cc4ccccc4cc3[nH]2)cc1	.	.	.	.	16%	.	-2	0.8	0.76
COc1ccc(S(=O)(=O)NCC(c2cccnc2)N2CCN(C)CC2)cc1OC (centres undefined)	2.5	20	10	-1.8	.	i	-1	0.1	.
CCOC(=O)/C(=C\C=C\c1ccccc1)NC(=O)c1ccccc1	.	.	.	.	.	.	-5	3.7	0.64
O=C(Nc1ccc(Cl)cc1)N[C@H]1CC[C@@H](CCn2cc(Cc3ccccc3)nn2)O[C@H]1CO	1.1	-9	-34	5.1	.	i	.	.	.
O=C(O)c1ccc(S(=O)(=O)c2ccccc2)s1	-4.1	-1	1	-2.0	-6%	i	.	0.6	0.64
O=C(N/N=C/c1ccc(O)cc1)c1csc2c1CCCC2	1.0	-4	1	-7.1	18%	i	99*	0.1	.
O=c1c2nnn(-c3ccc(Cl)cc3)c2ncn1Cc1ccccn1	4.0	-4	5	-1.5	6%	i	-4	-1.2	0.72
CC1CCC2(CC1)NC(=O)N(CC(=O)N1CCc3ccccc3C1)C2=O (centres undefined)	0.2	5	8	-3.6	0%	i	-5	7.2	0.67
Cc1c(OC(C)C(=O)NCC2CCC(C(=O)O)CC2)ccc2c(-c3ccccc3)cc(=O)oc12 (centres undefined)	-0.4	-20	-20	-21	.	i	.	-1.0	0.78
COC(=O)C1CCC(C)(C(=O)Nc2ccccc2)C1(C)C (centres undefined)	.	.	.	.	11%	.	.	2.1	0.66
Cc1ccc(S(=O)(=O)c2ncccc2N)cc1	-2.6	3	7	-1.4	8%	i	.	1.8	0.65
CS(=O)(=O)c1ccc2nc(N)sc2c1	.	.	.	.	-3%	.	-6	3.4	0.69
NC(=O)C[C@@H]1N[C@]2(C(=O)Nc3ccccc32)[C@@H]2C(=O)N(c3cc(C(F)(F)F)ccc3Cl)C(=O)[C@H]12	.	.	.	.	55µM*	.	-11	0.6	0.71
COc1ccccc1C(=O)Nc1ccnn1C1CCN(C(=O)c2ccoc2)CC1	-0.2	13	11	1.6	.	i	1	-3.1	0.69
CCOc1ccc(NS(=O)(=O)c2cccc(C(=O)N3CCN(C/C=C/c4ccccc4)CC3)c2)cc1	6.8	.	.	.	.	i	.	-5.3	0.63

Later entries
SMILES	AF4-AF9 inh	rRNA inh HTS	rRNA inh HTS OD600	rRNA inh HTS RFP	Vif TR-FRET	FGF22 binding	ALR H2O2 inh	HNF4A DNA FP	E coli growth
COC(=O)C1=C(C)NC(C)=C(C(=O)OCC2CCCO2)C1c1cccc(Cl)c1 (centres undefined)	-1.1	3	10	3.5	.	i	-4	-0.1	0.69
C[C@H](CO)N1C[C@H](C)[C@H](CN(C)S(=O)(=O)c2ccccc2)Oc2c(NC(=O)C3CC3)cccc2C1=O	-8.1	0	-4	0.6	.	i	.	.	.
Cc1ccc(C)c(CSCc2nc3ccccc3[nH]2)c1	2.9	-34	-61	-1.3	8%	i	-7	0.7	0.62
CCN(CCCNC(=O)c1cc2c(-c3cccc(OC)c3)nn(C)c2s1)Cc1ccccc1	9.2	-45	-76	-13	-3%	i	0	1.5	0.67
C/C(=N\Nc1ccc(S(=O)(=O)Nc2ccccc2)cc1[N+](=O)[O-])c1ccc(N2CCOCC2)cc1	6.2	14	4	-3.6	.	i	-18	3.5	.
CC(C)C(=O)Nc1ccc2c(c1)C(=O)N(C)[C@H]1CC[C@H](CC(=O)NCc3ccc(F)cc3)O[C@@H]1CO2	0.0	-1	-6	0.2	.	i	.	.	.
Cc1ccc(S(=O)(=O)Nc2cccc(CP(=O)(c3ccccc3)c3ccccc3)c2)cc1	5.0	-19	-20	8.2	-3%	i	-3	6.9	0.69
Cc1noc(C)c1NC(=O)N(C)C[C@@H]1Oc2ccc(NC(=O)Nc3cccc4ccccc34)cc2CC(=O)N([C@H](C)CO)C[C@@H]1C	-0.7	3	8	1.2	.	i	.	.	.
Cc1oc(-c2ccc(Cl)cc2)nc1CS(=O)CC(=O)NCCCN1CCCC(C)C1 (centres undefined)	-3.9	11	20	3.1	.	i	99*	-1.8	0.65
CCc1ccc(C(C)NC(=O)c2cccs2)cc1 (centres undefined)	-7.0	14	1	1.1	.	i	-3	1.8	0.66
Cc1nc2sc(C(c3ccc(Cl)cc3)N3CCN(CCO)CC3)c(O)n2n1 (centres undefined)	-16	9	1	-4.2	.	i	-4	3.4	0.75
CN(CC(=O)Nc1ccccc1Br)C(=O)CCc1nc2ccccc2c(=O)[nH]1	-9.8	6	3	-0.9	-3%	i	-15	1.0	0.69
O=C(NCCOc1ccccc1)N1[C@H]2CC[C@@H]1C=C(c1ccc(F)cc1OCc1ccccc1)C2	-8.2	2	-3	1.3	1%	i	.	0.5	.
Cc1cc(C)c2nc(NC(=O)CN3C(=O)NC4(CCCC4)C3=O)sc2c1	12	-13	-29	2.5	3%	i	.	4.0	0.66
O=C(NCc1cccc(C(F)(F)F)c1)N1CCN(C(=O)c2ccccc2)CC1	-4.0	.	.	.	.	i	-7	-0.6	0.67
O=C(C[C@@H]1CC[C@H]2NC[C@@H](O)COC[C@@H]2O1)Nc1nccs1	-1.4	0	9	-5.2	.	i	.	.	.
COc1ccc(C2CN=NC23CCc2ccccc2C3=O)cc1 (centres undefined)	4.5	-20*	-7.5*	2.7*	-3%	i	.	1.1	0.68
Cc1nn(-c2ccccc2)cc1C(=S)Nc1ccccc1	-0.1	0	-1	0.3	20%	i	3	1.6	0.68
CCOC(=O)C1CCCN(CC(=O)Nc2c(C(=O)OC)[nH]c3ccc(Br)cc23)C1 (centres undefined)	.	.	.	.	-24%	.	-5	-4.6	0.76
C[C@@H]1CCCCO[C@@H](CN(C)C(=O)C2CCCCC2)[C@H](C)CN([C@@H](C)CO)C(=O)c2cc(NC(=O)Nc3ccccc3)ccc2O1	1.1	2	-2	0.7	.	i	.	.	.
C[C@H]1CN([C@@H](C)CO)C(=O)CCCn2cc(nn2)CO[C@@H]1CN(C)Cc1ccccc1C(F)(F)F	-2.6	0	-5	-2.0	.	i	.	.	.
CCCCn1c(SCC(=O)NC2CC(C)(C)NC(C)(C)C2)nc2cc(S(N)(=O)=O)ccc21	-12	5	3	-0.3	-1%	i	0	3.0	0.71
O=C(CN1CCN(Cc2ccccc2)CC1)N1CCCCCC1	1.3	-1	4	-2.3	2%	.	-11	-2.1	0.7
O=c1oc2ccccc2n1CSC1=NCCS1	.	.	.	.	2%	.	99*	1.6	0.78
O=C(NCc1cccc(Cl)c1)c1ccc(-c2cccnc2)c2ccoc12	6.8	-52	-72	-6.7	.	i	.	-1.4	.

4 of the entries above in order of the rRNA inh HTS value, falling.
SMILES	AF4-AF9 inh	rRNA inh HTS	rRNA inh HTS OD600	rRNA inh HTS RFP	Vif TR-FRET	FGF22 binding	ALR H2O2 inh	HNF4A DNA FP	E coli growth
Cc1nc2sc(C(c3ccc(Cl)cc3)N3CCN(CCO)CC3)c(O)n2n1 (centres undefined)	-16	9	1	-4.2	.	i	-4	3.4	0.75
O=C(NCCOc1ccccc1)N1[C@H]2CC[C@@H]1C=C(c1ccc(F)cc1OCc1ccccc1)C2	-8.2	2	-3	1.3	1%	i	.	0.5	.
C[C@@H]1CN([C@H](C)CO)S(=O)(=O)c2ccc(C#Cc3ccccc3F)cc2O[C@@H]1CN(C)C(=O)Cc1ccncc1	2.3	1	-9	14	.	i	.	.	.
Cc1nn(-c2ccccc2)cc1C(=S)Nc1ccccc1	-0.1	0	-1	0.3	20%	i	3	1.6	0.68

Next section
SMILES	AF4-AF9 inh	rRNA inh HTS	rRNA inh HTS OD600	rRNA inh HTS RFP	Vif TR-FRET	FGF22 binding	ALR H2O2 inh	HNF4A DNA FP	E coli growth
CC1C(=O)N(Cc2ccccc2)c2ccccc2N1C(=O)c1ccccc1 (centres undefined)	1.9	1	-2	-2.5	9%	i	-5	4.3	0.68
COc1ccccc1-c1ccc2c(c1)O[C@@H](CN(C)S(=O)(=O)c1ccc(C)cc1)[C@H](C)CN([C@H](C)CO)S2(=O)=O	-3.8	3	-3	-2.0	.	i	.	.	.
O=C(C[C@@H]1C=C[C@H](NC(=O)c2ccncc2)[C@H](CO)O1)NCCc1ccncc1	-1.9	0	3	-0.6	.	i	.	.	.
CNC[C@@H]1Oc2ncc(C#CCC3CCCC3)cc2C(=O)N([C@H](C)CO)C[C@@H]1C	5.0	4	4	13	.	i	.	.	.
CC1CC(C)CN(S(=O)(=O)c2ccc(C(=O)Nc3nnc(C4CC4)o3)cc2)C1 (centres undefined)	-1.0	-3	-32	-8.4	.	i	-1	1.5	0.66
CC(=O)Nc1ccc(NC(=O)CSc2nnc3ccc(-c4ccc(F)cc4)nn23)cc1	-0.7	7	-3	-0.6	15%	i	.	3.1	0.7
COc1ccc(CCC(=O)N/N=C\c2cccs2)cc1	0.3	-2	-1	-1.7	-7%	i	.	1.1	.
CNC(=O)CN(C1CCCCC1)S(=O)(=O)c1ccc(OC)c(Cl)c1	.	.	.	.	2%	.	-8	0.6	0.77
Cc1ccc(OCc2cc(C(=O)N3CCN(C4CCCCC4)CC3)no2)cc1C	0.9	-33	-52	7.6	.	i	-32	3.7	0.64
O=C(Nc1ccc(Cl)c(Cl)c1)N1CC=C(c2ccccc2)CC1	.	.	.	.	-1%	.	-3	1.2	0.69
COc1cccc(/C=N/Nc2nn3cnnc3c3ccccc23)c1O	.	.	.	.	5%	.	-5	6.1	.
O=c1[nH]c(=S)[nH]cc1Oc1ccc(Br)cc1Br	-1.2	-56	-73	-20	6%	i	.	4.1	0.61
CCCc1cc(=O)oc2cc(OCC(=O)NCCCN3CCOCC3)ccc12	-2.2	17	1	4.1	.	i	-12	3.0	0.67
Cc1ccc2c(C(=O)CCl)c(C)[nH]c2c1	-8.8	-8	12	-1.2	25%	i	-1	0.6	0.71
CCCc1cc(=O)n2[nH]c(C)c(-c3ccccc3OC)c2n1	0.0	6	7	2.4	0%	i	.	-0.1	.
CS(=O)(=O)N1[C@@H](C#N)[C@@H](c2ccc(C#CC3CCCC3)cc2)[C@@H]1CO	2.1	-47	-69	-7.3	.	i	.	.	.
